# Menin-MLL FL inh: menin-MLL binding inhibition, fluorescein peptide; FP activity change, % at 61.4 µM; Fluorescence polarization, fluorescein-MLL peptide displacement from menin; 290,000 tested, under 10 active; inconclusive = falling polarisation curve, or a change in total fluorescence; inactive = total fluorescence flat and polarisation flat or rising; no compound was filed as active; the % refers to the polarisation; negative = inhibition;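 also: % of control where 0% means no effect; inhibitors lower the polarisation; unlabelled MLL peptide was the positive control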
# gsp antagonist: antagonizes gsp, the McCune-Albright syndrome mutation | gsp-mutant cells, cAMP HTRF, 30 min; control for the full effect not named in the record | Potency, µM (series often up to 76.9 µM), for the others: top-dose activity change, negative = inhibition, usual class: inhibitors | AID 624288 | actives 0.4% (n = 340,000); active = falling curve of any shape with a large fitted effect; inconclusive = falling curve, mostly with a smaller effect; inactive = flat or rising curve; cell line not stated here;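 also: intracellular cAMP measured with PDE inhibitor Ro 20-1724 present during compound exposure; potency is read from the fitted curve at half-maximal effect; % is scaled to controls: 0 for no effect and ±100 for the full control effect; nearly all actives have a fitted effect of over 65% in size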
#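 Cells in G418 medium, seeded 16-24 h, 37C; buffer exchange to DPBS + 1 mM CaCl2, 0.5 mM MgCl2, 0.05% BSA; cpds in DMSO + […] (300 uM stock), 30 min 37C; HTRF cAMP detection.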
# gsp ag: agonists of gsp mutant (McCune-Albright syndrome); AID 624287; gsp mutant cells, cAMP HTRF, 30 min; control for the full effect not named in the record; actives 0.13% (n = 340,000); Potency, µM (doses to about 76.9 µM), for inactives: at the top dose activation (cAMP increase), most hits filed as activators; active = well fitted activation curve with a large enough effect; inconclusive = small, poorly fitted or top-dose-only effect, or another doubt; inactive = no such curve, though single readings can be large or run the other way; cell line not stated here;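 also: phosphodiesterase inhibitor Ro 20-1724 added with compounds to block cAMP breakdown; potency is read from the fitted curve at half-maximal effect; nearly all actives have a fitted effect of over 60% in size; about a fifth of the inactives were tested at one dose only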
#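 Cells in DMEM/10% FBS with G418 were pretreated with compounds in DMSO plus […] (300 uM stock) for 30 min at 37C. cAMP was measured by HTRF (cAMP-d2 plus anti-cAMP antibody-K) after 30 min at room temperature.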
# TRPML1 ag: activates the human TRPML1 channel | activation, % (test concentration not listed) | actives 0.12% (n = 410,000) | TRPML1-expressing cells, Ca2+ dye fluorescence, FDSS; host cell line not named in the record; reference of the full effect not given here | Q9GZU1; in the data active = activation above about 50%; inconclusive = about 30% to 50%; inactive = below about 30%; also: 0% is about no effect; the text of the record puts the active cut at 80%
# Target sequence (Q9GZU1 whole entry, looked up): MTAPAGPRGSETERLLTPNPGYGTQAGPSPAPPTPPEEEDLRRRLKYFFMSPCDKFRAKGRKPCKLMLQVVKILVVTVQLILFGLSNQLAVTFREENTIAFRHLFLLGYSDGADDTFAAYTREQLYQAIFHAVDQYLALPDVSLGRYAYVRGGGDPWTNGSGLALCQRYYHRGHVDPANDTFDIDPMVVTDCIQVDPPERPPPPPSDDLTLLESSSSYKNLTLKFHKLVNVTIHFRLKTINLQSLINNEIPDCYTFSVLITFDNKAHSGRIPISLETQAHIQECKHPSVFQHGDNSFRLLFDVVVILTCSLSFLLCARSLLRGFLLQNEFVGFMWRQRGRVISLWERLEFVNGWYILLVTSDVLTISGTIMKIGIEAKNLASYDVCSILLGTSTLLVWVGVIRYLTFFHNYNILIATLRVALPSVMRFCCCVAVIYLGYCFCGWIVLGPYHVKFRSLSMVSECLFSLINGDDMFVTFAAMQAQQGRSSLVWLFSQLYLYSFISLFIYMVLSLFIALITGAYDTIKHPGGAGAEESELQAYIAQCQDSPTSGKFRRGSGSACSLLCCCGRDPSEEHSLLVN
#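 Calcium fluorescence on an FDSS kinetic reader gave the read-out. Tet-induced TRPML1-DL cells were plated overnight, dye-loaded (Ca8 with quencher, 45-90 min, room temperature, dark), then read 110 s after compound addition, and again 110 s after 4uM final 54-4 (EC80).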
# TRPML1 blocker: blocks the human TRPML1 channel | actives 0.02% (n = 390,000) | activity change, negative = inhibition, % (test concentration not listed) | TRPML1-inducible cells, Ca2+ dye fluorescence, FDSS; active compounds read low; inhibition of EC80 agonist-evoked calcium signal; in the data active means activity change below about -50%; inconclusive means about -30% to -50%; inactive means above about -30%;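 also: stimulus is agonist 54-4 at its EC80 concentration; % is scaled to controls: 0 for no effect and ±100 for the full control effect; compound concentration not given in the record; the text of the record puts the active cut at -80%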
#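 TRPML1-DL cells, Tet-induced overnight (~16 h, 37 °C) at 1,500 cells/well, were loaded with Ca8 no-wash dye plus quencher for 45-90 min at room temperature. Compounds were pinned during FDSS kinetic reading; agonist 54-4 at EC80 (4 uM final) then added.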
# ClpP mod: qHTS Assay for Activators of ClpP; ATP-dependent Clp protease proteolytic subunit (Bacillus subtilis (strain 168)), P80244; purified B. subtilis ClpP, FRET peptide cleavage, 20 min; Potency, µM (series often up to 57.5 µM), for the others: at the top dose activity change, negative = active; actives 1.9% (n = 340,000); active = well fitted falling curve with a large enough effect; inconclusive = small, poorly fitted or top-dose-only effect; inactive = no such curve, though single readings can be large or run the other way; also: potency is read from the fitted curve at half-maximal effect; the source files actives as falling curves though it sought activators and does not explain the sign; nearly all actives have a fitted effect of over 65% in size; many hits overshoot -100%
# Target sequence (P80244 whole entry, looked up): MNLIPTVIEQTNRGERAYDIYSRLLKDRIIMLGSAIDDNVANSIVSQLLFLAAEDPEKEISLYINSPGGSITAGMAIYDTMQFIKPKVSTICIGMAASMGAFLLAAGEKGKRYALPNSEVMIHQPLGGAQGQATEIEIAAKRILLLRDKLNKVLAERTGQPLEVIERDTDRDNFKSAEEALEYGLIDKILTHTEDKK
#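 Buffer: 100 mM Tris/HCl pH8, 100 mM KCl, 0.05% low protease BSA, 2.5% glycerol, 0.01% Tween-20. ClpP 10 microg/mL final; 20 min RT; delta FRET normalized to ADEP and DMSO controls.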
# Active calls of the source: *; u = inconclusive; x = no result given; & = joins results of further samples; [ ] = remark or other dose.
1. O=C(CNC(=O)c1cccc(OC(F)F)c1)OCn1nnc2ccccc2c1=O
2. CC(C)COC(=O)C(N)C(C(=O)OCC(C)C)c1ccccc1 (configuration not stated)
3. O=C(NCc1ccc(F)cc1)C(=O)NCC1OCCN1C(=O)c1cccs1 (configuration not stated)
4. O=C(COc1ccc(Cl)cc1Cl)NNC(=S)Nc1ccc(F)cc1
5. C=CCNC(=O)c1ccc(OC2CCN(S(=O)(=O)N(C)C)CC2)cc1
6. O=C(CS(=O)(=O)c1ccc(F)cc1)NCc1ccccc1
7. CCCN1C(=O)C2(SC(NC(C)=O)=NN2C(C)=O)c2cc(C)cc(C)c21 (configuration not stated)
8. CCOC(=O)c1cnc2ccc(C)cc2c1Nc1ccc(N2CCOCC2)cc1

screen / no.,1,2,3,4,5,6,7,8
Menin-MLL FL inh,0.2,-0.1,-9.4,2.1,2.1,x,0.9,5.1
gsp antagonist,-19%,2%,1%,u,x,2%,0%,u
gsp ag,u,2%,u,-39%,-1%[15.4 µM],-8%[15.4 µM],14%[15.4 µM],-14%
TRPML1 ag,-0.8,-1.0,0.0,-0.2,0.4,-0.9,1.0,-0.6
ClpP mod,x,0.6%,-1.3%,-1.2%,x,x,x,4.5%
TRPML1 blocker,-14,6,-12,-5,-3,3,-23,-2

9. Cc1sc2nc(CN3CCOCC3)[nH]c(=O)c2c1-c1ccccc1
10. COc1ccc2oc(C(=O)N(C)CCOc3ccc(Cl)cc3)c(C)c2c1
11. Cc1cc(N2CCN(c3ccccc3F)CC2)n2cnnc2n1
12. O=C(CSc1cn[nH]n1)Nc1ccccc1C(F)(F)F
13. O=C(Nc1nnc(-c2ccc(Cl)cc2)o1)Nc1ccccc1Cl
14. CCOC(=O)C1CCCN(S(=O)(=O)c2cc(OCC(N)=O)c(C)cc2Cl)C1 (configuration not stated)
15. CN1C(C(=O)Nc2ccc(OC(F)(F)F)cc2)=CC(c2cccs2)=NS1(=O)=O
16. Cc1ccc(CCNC(=O)Cn2ncc3c(=O)oc4ccccc4c32)cc1

screen / no.,9,10,11,12,13,14,15,16
Menin-MLL FL inh,x,3.0,x,-0.2,0.5,-1.8,x,x
gsp antagonist,-11%,-19%,x,10%,2%,-15%,0%,x
gsp ag,u,-55%[inhibitor],x,1%[15.4 µM],22%,-4%,-10%,x
TRPML1 ag,-0.1,3.7,0.7,0.2,1.2,-0.2,1.1&2.0,-0.8
ClpP mod,0.6%,-7.7%,-1.9%,x,28µM*,0.2%,0.1%&-0.2%,-2.3%
TRPML1 blocker,-2,25,11,2,8,9,20&8,9

# Some of these compounds in order of molecular weight, lowest first.
11. Cc1cc(N2CCN(c3ccccc3F)CC2)n2cnnc2n1
9. Cc1sc2nc(CN3CCOCC3)[nH]c(=O)c2c1-c1ccccc1
14. CCOC(=O)C1CCCN(S(=O)(=O)c2cc(OCC(N)=O)c(C)cc2Cl)C1 (configuration not stated)

screen / no.,11,9,14
Menin-MLL FL inh,x,x,-1.8
gsp antagonist,x,-11%,-15%
gsp ag,x,u,-4%
TRPML1 ag,0.7,-0.1,-0.2
ClpP mod,-1.9%,0.6%,0.2%
TRPML1 blocker,11,-2,9

# Next records.
17. COc1ccc(C(=O)Nc2ccccc2-c2nc(-c3ccc(OC)cc3)no2)cc1
18. O=C(COC(=O)c1ccc(O)cc1)NC1CCCC1
19. CN1CCN(C(c2ccccc2Cl)c2sc3nc(-c4ccco4)nn3c2O)CC1 (configuration not stated)
20. CCCC1(C2CCCC2)NC(=O)NC1=O (configuration not stated)
21. COc1ccc(NC(=O)CSc2nnc(-c3ccncc3)o2)c([N+](=O)[O-])c1
22. CC1(C)NC(C)(C)/C(=C\c2cccs2)C(=O)C1=O
23. O=C1c2ccccc2C(O)N1Cc1ccc2c(c1)OCO2 (configuration not stated)
24. Cn1c(=O)c2c3c(sc2n2cnnc12)CCC3

screen / no.,17,18,19,20,21,22,23,24
Menin-MLL FL inh,x,9.4,x,x,1.8,-9.4,-0.9,-0.5
gsp antagonist,x,3%,x,-12%,1%,0%,1%,17%
gsp ag,x,-12%,x,0%,2%[15.4 µM],-3%[15.4 µM],u,16%
TRPML1 ag,-0.7,0.2,0.7,0.0,1.1,-0.4,0.0,1.6
ClpP mod,-10%,0.3%,3.8%,0.8%,0.4%,x,-1.8%,0.0%
TRPML1 blocker,33,-8,2,4,10,-12,-7,-1

25. COc1cc(C(=O)Nc2ccccc2-c2nc(-c3ccccc3)no2)cc(OC)c1OC
26. S=C(Nc1ccccc1)Nc1nc2ccccc2n1CCOc1ccccc1
27. CC(C)Cn1c(-c2cccs2)nc2ccccc21
28. CCOc1ccc(NC(=O)c2ccc(NC(=O)COC(=O)Cc3ccc(OC)cc3)cc2)cc1
29. C=CCN1C(=O)C(O)(CC(=O)c2ccc(-n3cccc3)cc2)c2ccccc21 (configuration not stated)
30. COc1ccc(-c2cc(-c3cccs3)nc(OC)c2C#N)cc1OC
31. O=C(CNC(=O)c1cccc(F)c1)N/N=C/c1cc(Br)ccc1OC(=O)/C=C/c1ccco1
32. COc1ccc(NC(=O)CCNC(=O)C2CCN(S(=O)(=O)c3ccccc3)CC2)cc1OC

screen / no.,25,26,27,28,29,30,31,32
Menin-MLL FL inh,x,-0.7,4.8,-3.9,-0.5,-0.3,13,x
gsp antagonist,x,-5%,1%,1%,-5%,28%,u,x
gsp ag,x,19%,u,8%[15.4 µM],6%,4%,-1%,-59%[inhibitor]
TRPML1 ag,0.5,-0.7,-0.7,-0.4,-0.8,2.4,1.3,0.2
ClpP mod,-1.7%,-0.2%,50%,x,-6.1%,32µM*,-6.7%,-2.1%
TRPML1 blocker,28,-5,25,-4,-13,43,3,-3

33. COCC(C)NC(=O)CSc1nc2ccccc2n1CCc1ccccc1 (configuration not stated)
34. CCN1C2=NCCCN2c2ccccc21
35. CC(C)(C)c1cc(OC(=O)c2ccccc2F)ccc1O
36. O=C(COC(=O)c1ccc(F)c(S(=O)(=O)N2CCOCC2)c1)c1ccc(Cl)cc1
37. C=CCn1c(C)cc(C(=O)CSc2ccc(NC(C)=O)cc2)c1C
38. CNC(=O)C[C@@H]1C(=O)N(C2CCCCC2)CC1(C)C
39. COc1cc(C(=O)N[C@@H](C)C(=O)N2CCC3(CC2)NCCc2[nH]cnc23)cc(OC)c1OC
40. CCOC(=O)c1sc2ccccc2c1S(=O)(=O)Nc1ccc(CC)cc1

screen / no.,33,34,35,36,37,38,39,40
Menin-MLL FL inh,4.1,0.4,6.0,x,-0.3,x,x,x
gsp antagonist,u,11%[15.4 µM],x,-18%,-4%,x,7%,x
gsp ag,0%,-11%,-4%[15.4 µM],-18%,-20%,-5%,-13%,x
TRPML1 ag,-0.1,0.7,2.4,0.1,-1.3,-0.2,0.3,0.5
ClpP mod,-1.0%,-1.8%,x,0.4%,0.7%,-0.5%,-4.6%,-2.4%
TRPML1 blocker,-1,-5,28,12,-10,2,-6,-16

41. Cc1nn(CCCC(=O)Nc2ccc(Br)cc2F)c(C)c1[N+](=O)[O-]
42. Cc1[nH]oc(=O)c1N=Nc1c(Cl)cccc1Cl
43. CCOc1ccc(-c2n[nH]c(C)c2Oc2ccccc2OC)c(O)c1
44. O=C(CN1c2ccccc2Sc2ccccc21)NNC(=O)Nc1cccc(Cl)c1
45. COc1ccc(C(=O)N/N=C/c2ccc(OC)c(CSc3ccccn3)c2)cc1
46. CCOC(=O)c1ccccc1NC(=O)Cn1c(=O)n(CCC(=O)N2CCc3ccccc3C2)c(=O)c2ccccc21
47. COc1ccc(CCN=C(C)C2=C(O)C(c3ccccc3)OC2=O)cc1OC (configuration not stated)
48. CNCCC1Sc2ccccc2Oc2ccccc21 (configuration not stated)

screen / no.,41,42,43,44,45,46,47,48
Menin-MLL FL inh,0.5,x,2.0,1.5,5.6,x,-9.3,0.4
gsp antagonist,-1%,-10%,u,-19%,u,x,-8%,3%
gsp ag,-2%,8%,5%,26%,-29%,x,7%[15.4 µM],-22%
TRPML1 ag,0.5,-0.7,2.3,1.7,1.2,1.5,-2.1,-0.8
ClpP mod,-2.1%,-3.3%,-6.0%,x,-13%,4.1%,0.2%,x
TRPML1 blocker,8,-14,-7,-8,-7,2,-8,2

# Compounds 46 through 48, quoted:
46. CCOC(=O)c1ccccc1NC(=O)Cn1c(=O)n(CCC(=O)N2CCc3ccccc3C2)c(=O)c2ccccc21
47. COc1ccc(CCN=C(C)C2=C(O)C(c3ccccc3)OC2=O)cc1OC (configuration not stated)
48. CNCCC1Sc2ccccc2Oc2ccccc21 (configuration not stated)

screen / no.,46,47,48
Menin-MLL FL inh,x,-9.3,0.4
gsp antagonist,x,-8%,3%
gsp ag,x,7%[15.4 µM],-22%
TRPML1 ag,1.5,-2.1,-0.8
ClpP mod,4.1%,0.2%,x
TRPML1 blocker,2,-8,2

# The list continues.
49. COc1ccc(-n2c(C)cc(C(=O)COC(=O)c3cc(NC(=O)c4cccs4)c(OC)c(OC)c3)c2C)cc1
50. COc1ccc(Cl)cc1NC(=S)N1CC(C)OC(C)C1 (configuration not stated)
51. O=C(Nc1ccc(Cl)cc1)C1CCCCN1S(=O)(=O)c1ccccc1 (configuration not stated)
52. CCN(CC)S(=O)(=O)c1ccc2c(c1)c(=O)c(C(=O)N1CCN(c3ccc(OC)cc3)CC1)cn2C
53. O=C(NC1CCCCCC1)c1cccc(N2CCCC2=O)c1
54. O=C(CSc1ncccn1)N1CCN(Cc2ccccc2)CC1
55. COc1ccc(C(=O)Nc2ccccc2SCc2cc(=O)c3cccc(C)c3[nH]2)cc1
56. CC(C)OC(=O)c1c(NC(=O)Cn2cnc([N+](=O)[O-])n2)sc2c1CCCC2
57. O=C(O)CCCCCCCCc1cn(CC2CCCCC2)nn1
58. CCCCc1cc(C(=O)Cc2ccccn2)c(O)cc1O

screen / no.,49,50,51,52,53,54,55,56,57,58
Menin-MLL FL inh,2.0,-2.6,x,x,2.0,1.7,x,0.0,-2.9,5.4
gsp antagonist,-1%,13%,u,x,-1%,15%,x,-11%,-10%,-2%
gsp ag,-40%[inhibitor],-24%,-12%,x,1%,u,x,-48%[inhibitor],9%,-18%
TRPML1 ag,-0.8,0.7,-0.1,-0.7,-0.7,-0.8,1.0,0.8,-0.4&-0.2,0.5
ClpP mod,u,0.9%,-4.6%,-6.0%,-1.1%,1.0%,-1.6%,4.3%,-2.5%&-1.9%,-19%
TRPML1 blocker,4,24,31,9,-2,12,-10,-8,6,7

# Screening data as filed in PubChem.
